Source: PubChem
Calb FLC: C. albicans growth modulation with fluconazole; C. albicans CaCi-2 (fluconazole-resistant clinical isolate) + fluconazole, Alamar Blue growth, 48 h; growth inhibition, % (test concentration not listed); 300,000 tested, 0.57% active; AID 1979;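 active = most replicates above 75%; inconclusive = exactly half above 75%; inactive = most below 75%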;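 note: all wells also contain fluconazole at 8 µg/ml as a sub-toxic cotreatment; 0% = median of DMSO wells and 100% = median of geldanamycin control wells; wells of about 8 µL received 7.5 nL stock; the first replicate is given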
RanGTP-Impb inh: inhibitors of RanGTP-importin-beta interaction, primary screen, biochemical, FRET, CFP-Ran, YFP-importin-beta, homogeneous; cell-free CFP-Ran/YFP-importin-beta FRET ratio; inhibition, % (concentration not given with the values); 300,000 tested, 1.1% active; AID 2216;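 active = most replicates above 15%; inconclusive = exactly half above 15%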;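 note: 0% = DMSO wells and 100% = Ran loaded with GDP instead of GTP; wells of about 40 µL received 100 nL stock; the first replicate is given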
HNF4A DNA FP: change in binding of human HNF4 alpha to DNA; 360,000 tested, 0.3% active; HNF4a-FITC DNA binding, fluorescence polarization, 1 h; activity change, % at 10 µM; P41235; in the data active = activity change above about 30%, passing the limit was not always enough;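 note: controls were the assay level and a saturating level of protein; the project sought stronger binding though the title names inhibitors; some compounds called inactive have numbers as strong as hits; positive values seem to mean higher polarization but the record does not say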
Target sequence (P41235 whole entry, looked up): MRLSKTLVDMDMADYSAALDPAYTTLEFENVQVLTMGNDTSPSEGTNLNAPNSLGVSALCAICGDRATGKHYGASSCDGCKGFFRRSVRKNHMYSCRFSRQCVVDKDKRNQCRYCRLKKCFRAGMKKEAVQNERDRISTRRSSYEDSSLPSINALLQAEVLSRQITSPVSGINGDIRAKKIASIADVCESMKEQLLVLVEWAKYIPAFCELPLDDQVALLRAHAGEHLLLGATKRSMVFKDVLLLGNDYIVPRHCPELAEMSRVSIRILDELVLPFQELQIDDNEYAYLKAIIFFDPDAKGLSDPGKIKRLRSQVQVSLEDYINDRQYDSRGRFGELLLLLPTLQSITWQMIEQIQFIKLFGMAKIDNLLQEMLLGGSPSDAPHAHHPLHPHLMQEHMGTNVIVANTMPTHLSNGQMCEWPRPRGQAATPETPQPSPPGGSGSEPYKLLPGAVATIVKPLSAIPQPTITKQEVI
Beta2AR agonist: agonists of human beta-2 adrenergic receptor inducing internalization; P07550; Am2.2-beta2AR cells, FAP receptor internalization, flow cytometry; reference of the scale not given here; response, % (concentration not given with the values); 340,000 tested, 0.43% active; AID 504454;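 active = response above a set limit, near 3 SD of response in nonfluorescent compounds, cut at about 42% in these data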;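 note: stock transfer was 100 nL into about 11 µL; a reference agonist was the positive control; negative values mostly stem from fluorescent compounds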
Target sequence (P07550 whole entry, looked up): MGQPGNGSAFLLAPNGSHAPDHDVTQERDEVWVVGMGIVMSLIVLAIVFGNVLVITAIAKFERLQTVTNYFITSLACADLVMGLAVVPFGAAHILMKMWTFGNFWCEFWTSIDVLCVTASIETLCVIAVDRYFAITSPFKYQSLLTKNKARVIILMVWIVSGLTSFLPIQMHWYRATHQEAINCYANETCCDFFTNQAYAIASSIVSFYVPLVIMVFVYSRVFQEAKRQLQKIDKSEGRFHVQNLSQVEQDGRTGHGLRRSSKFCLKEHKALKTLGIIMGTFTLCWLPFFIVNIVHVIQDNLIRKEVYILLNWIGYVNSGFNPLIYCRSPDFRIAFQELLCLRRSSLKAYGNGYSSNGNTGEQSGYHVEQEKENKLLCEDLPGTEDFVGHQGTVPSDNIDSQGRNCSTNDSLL
Vif A3G: inhibitors of Vif binding to APOBEC3G peptide, primary screen, biochemical, TR-FRET, GST-Vif 1-94, biotin-A3G peptide, dose response retest (AID 1117319); one-dose inhibition, %; IC50 in µM for titrated hits; TR-FRET GST-Vif / biotin-A3G peptide binding; higher % means a stronger effect; test concentration not given here; strong numbers were not always called active; 260,000 tested, 0.57% active;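 active = above the screen mean plus three standard deviations and confirmed in dose response; inconclusive = results disagree or hit not tested in dose response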;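 note: Vif residues 1-94 fused to GST binding biotinylated APOBEC3G peptide 110-148; 0% = full assay without inhibitor and 100% = GST in place of GST-Vif; retest series ran down from 100 µM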
ALR inh: blocks human ALR sulfhydryl oxidase activity; P55789; purified ALR, DTT oxidation, H2O2 HRP-luminol luminescence; inhibition, % (concentration not given with the values); 290,000 tested, 3.8% active;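 active = mean and each replicate at 75% or more; inconclusive = only one of the two met; inactive = neither met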;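 note: stock transfer was 7.5 nL into about 7.5 µL; 0% = neutral wells and 100% = wells with inactivated enzyme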
LANA-H2A inh: blocks KSHV LANA binding to histone H2A/H2B; Q9QR71; cell-free LANA-H2A/H2B peptide, fluorescence polarization; inhibition, % (no concentration beside the values); 320,000 tested, 0.6% active; AID 2629; in the data active = inhibition mostly above about 10%, no sharp cut-off; inactive = mostly below about 6.7%;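 note: stock transfer was 7.5 nL into about 10 µL; 0% = median of vehicle wells and 100% = median of positive control wells; one replicate is shown; the record names a cut of 25% in any replicate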
* hit, by the source's call; ? = inconclusive; · = no result given; & = joins results of further samples.

Under each structure – Calb FLC	RanGTP-Impb inh	HNF4A DNA FP	Beta2AR agonist	Vif A3G	ALR inh	LANA-H2A inh
> COc1ccc(-c2nnn3c2nc(NCc2ccccc2)c2ccccc23)cc1
 : ?	3.3	-4.8	-2.0	-26.7%	-9.3	2.9
> CCc1oc2ccccc2c1C(=O)CCN1CCCCC1
 : -9.8	-0.2	2.6	9.2	8.0%	97.1*	-3.1
> CCOC(=O)N1CCN(C(=O)CCNS(=O)(=O)c2ccc(C)c(C)c2)CC1
 : ·	-0.2	2.9	1.6	·	-3.2	1.1
> CC(C)(C)OC(=O)N1CCC(CC2CC(c3ccccc3)=NO2)(C(=O)NCc2ccccc2)CC1 (centres undefined)
 : ·	·	-3.0	-11.8	·	0.7	-2.9
> Nc1nc(N)nc(-c2ccc(Cl)cc2)n1
 : -9.4	2.2	-1.3	-7.4	0.5%	0.1	1.5
> COc1ccc(CCNC(=O)CNS(=O)(=O)c2cccs2)cc1OC
 : 53.0	1.7	-2.3	-2.4	7.2%	-3.7	-1.1
> COc1cc(/C=N/NC(=O)c2ccncc2)ccc1OCC(=O)Nc1ccccc1
 : 2.5	4.6	-3.5	-0.4	·	-3.1	-2.1
> COc1ccc(S(=O)(=O)N2CCOc3ccccc32)cc1
 : -5.0	-1.2	-0.9	8.2	-3.9%	·	3.1
> Cc1ccccc1C1=Nn2c(nnc2-c2ccco2)SC1
 : 6.4	-3.2	2.2	-2.0	?	-14.1	-7.5
> CCn1c(O)c(/C=C2\C=NN=C2c2ccccc2)sc1=S
 : 48.3	3.9	1.0	3.2	·	-1.6	14.6*
> Cc1cc(NS(=O)(=O)c2ccc(C3CCCCC3)cc2)no1
 : 39.7	-1.6	-1.1	1.9	29.4%	·	6.8
> C=CC[C@@H](Cc1ccc(F)cc1)C(=O)OC[C@H]1CCCN1C(=O)[C@@H](CC=C)CC(=O)N(CCO)Cc1ccccc1
 : ·	·	7.3	-11.2	9.8%	·	·
> CCOc1ccc(-c2cc(C(=O)Nc3ccc4c(c3)OCCO4)c3ccccc3n2)cc1
 : -3.7	2.2	-1.9	4.6	2.7%	·	-3.9
> O=C(OCn1nnc2ccccc2c1=O)C1COc2ccccc2O1 (centres undefined)
 : -4.8	-3.4	-4.4	8.0	3.9%	4.7	-9.6
> N#CC1=C2SCN(Cc3ccco3)CN2C(=O)CC1c1cccc2ccccc12 (centres undefined)
 : 4.1	0.8	0.6	-0.8	16.0%	-5.5	-1.9
> FC(F)(F)c1nc(SCc2ccc(Cl)cc2Cl)n[nH]1
 : -8.5	2.1	-3.9	0.7	-1.3%	-4.8	3.7
> O=C(NCc1cc(Br)cc(Br)c1OC(=O)c1ccccc1[N+](=O)[O-])c1ccccc1
 : 19.0	2.4	0.6	-3.1	·	-20.4	-3.3
> O=C(CN(Cc1ccccc1)C(=O)c1ccc2c(c1)OCCO2)NCc1ccc2c(c1)OCO2
 : 12.2	3.1	-2.7	-6.0	0.5%&-0.8%	-3.3	4.1
> COc1ccc(Cc2nc(C(=O)Nc3ccccc3)cs2)cc1
 : 0.6	-0.3	3.1	-1.4	21.6%	-1.9	3.6
> COc1cc(OC)cc(C(=O)NCc2n[nH]c(=S)n2-c2ccccc2)c1
 : -34.8	6.1	3.2	-5.3	5.8%	55.5	-0.5
> C=C(C)CN(CC)C(=O)CSc1nc(O)cc(=O)n1C1CCCC1
 : -7.4	-1.1	3.4	-5.9	-2.5%	2.7	0.3
> Cc1ccc(C(=O)OCC(=O)c2ccc(CC(=O)N3CCOCC3)s2)cc1C
 : ·	·	-6.5	5.3	1.1%	8.4	1.0
> CC[C@]12c3[nH]c4ccc(OC)cc4c3CCN1C(=O)C(CC(=O)NCCCn1ccnc1)C[C@@H]2C(=O)N1CCN(C(=O)C2CC2)CC1 (some centres undefined)
 : ·	·	-5.0	10.5	0.9%	·	·
> CCOc1cccc(CN2CCC(CCC(=O)NC3CC3)CC2)c1O
 : 0.3	1.2	-0.9	1.7	·	14.6	1.3
> CCC1Sc2ccc(S(=O)(=O)CCC(=O)Nc3cccc(Br)c3)cc2NC1=O (centres undefined)
 : 25.1	-1.9	-2.7	0.5	·	·	-0.1
> O=[N+]([O-])c1ccc(O)c(C=Nc2ccc3c(c2)OCO3)c1
 : 7.0	?	-1.0	-2.0	10.0%	·	1.0
> CC1(C)CC(NC(=O)COc2cc3oc(=O)c4c(c3cc2Cl)CCC4)CC(C)(C)N1
 : -4.3	-2.5	-0.7	1.1	·	-4.8	-4.1
> O=C(/C=C/c1ccco1)NCCCN1CCOCC1
 : -10.1	1.0	0.4	-4.6	-4.0%	-1.2	-5.4
> O=C(Nc1nc(-c2ccccc2)c(C(=O)c2ccccc2)s1)c1ccc(S(=O)(=O)N2CCCCC2)cc1
 : 9.6	2.3	-2.6	9.8	-17.1%	-1.1	4.6
> CCOc1ccc(CN(C)CC(=O)Nc2ccc3c(c2)CCC3)cc1OC
 : -7.8	-0.2	-1.9	-4.9	-5.1%	·	2.1

Complete entries, quoted from the list:
O=[N+]([O-])c1ccc(O)c(C=Nc2ccc3c(c2)OCO3)c1 is entered as Calb FLC = 7.0; RanGTP-Impb inh = ?; HNF4A DNA FP = -1.0; Beta2AR agonist = -2.0; Vif A3G = 10.0%; ALR inh = ·; LANA-H2A inh = 1.0
FC(F)(F)c1nc(SCc2ccc(Cl)cc2Cl)n[nH]1 is entered as Calb FLC = -8.5; RanGTP-Impb inh = 2.1; HNF4A DNA FP = -3.9; Beta2AR agonist = 0.7; Vif A3G = -1.3%; ALR inh = -4.8; LANA-H2A inh = 3.7

(continued)
Under each structure – Calb FLC	RanGTP-Impb inh	HNF4A DNA FP	Beta2AR agonist	Vif A3G	ALR inh	LANA-H2A inh
> Nc1cc2c(cc1C(=O)c1ccccc1F)OCCO2
 : 37.4	?	-0.5	-6.9	1.9%	29.2	1.1
> O=C(Nc1ccc2c(c1)OCO2)C1CCCN(S(=O)(=O)Cc2ccccc2)C1 (centres undefined)
 : 0.6	-6.0	1.4	10.3	0.2%	0.5	-5.9
> O=C(CSc1nc2ccccc2[nH]1)Nc1ccccc1F
 : -4.3	1.8	-0.3	-14.6	16.2%	-5.8	-5.2
> CC(=O)Nc1nnc(CCS(=O)(=O)c2ccc(C)c(C)c2)s1
 : -2.3	2.3	1.1	0.0	-7.7%	·	0.8
> CN(Cc1ccccc1)S(=O)(=O)c1csc(C(N)=O)c1
 : 0.0	-0.8	1.8	-2.2	·	1.2	0.6
> Cc1c(NC(=O)C(C)OC(=O)c2ccc(NC(=O)CC#N)cc2)c(=O)n(-c2ccccc2)n1C (centres undefined)
 : 1.2	-1.2	-2.0	-4.0	2.3%	2.0	-3.4
> Cc1[nH]c2ccccc2c1C(=O)CN1CCN(c2ccc(Cl)cc2)CC1
 : 2.5	-1.0	-3.2	-5.8	1.4%	·	-0.6
> COc1ccc(C(CNC(=O)CCNS(=O)(=O)c2ccc(Br)cc2)N2CCCC2)cc1 (centres undefined)
 : ·	·	0.1	8.5	-6.6%	·	·
> Cc1nnc(NC(=O)c2ccccc2F)s1
 : -7.7	6.9	5.8	8.7	5.3%	-12.2	-2.0
> COc1ccc(Cl)cc1S(=O)(=O)NC1CC(C)(C)NC(C)(C)C1
 : -21.9	5.7	-3.6	6.3	·	-3.2	2.4
> CCCCCn1nc(C(=O)N(CCOC)c2c(N)n(CCCC)c(=O)[nH]c2=O)c2ccccc2c1=O
 : 2.9	·	-0.4	-5.9	·	9.3	0.1
> COCC(C)NC(=O)CSc1nc2ccccc2c(=O)n1CCc1ccc(S(N)(=O)=O)cc1 (centres undefined)
 : 4.7	3.9	-0.5	-4.9	·	2.6	10.0
> CCOc1ccc(NC(=S)NCc2ccc3[nH]c(C)cc3c2)cc1
 : 23.0	0.7	-0.1	-3.4	-2.7%	-0.9	-6.8
> COc1ccccc1-n1cnnc1SC(C)C(=O)Nc1cccc([N+](=O)[O-])c1 (centres undefined)
 : 13.4	-1.2	1.2	-6.4	·	2.4	-10.2
> Cc1ccc(NC(=S)NNC(=O)CSc2nnc(-c3ccc(Cl)cc3)n2C2CCCCC2)cc1
 : 23.0	2.7	1.1	-2.7	2.7%	14.7	-4.1
> Cc1cc([N+](=O)[O-])nn1CC(=O)N1c2ccccc2CC1C (centres undefined)
 : -31.9	-3.0	0.5	-2.7	·	-0.5	1.4
> CCOC(=O)N1CCC(NC(=O)c2cc(COc3ccc(F)cc3Cl)on2)CC1
 : 0.0	?	-0.6	-0.4	·	-0.7	-4.1
> CCOc1ccccc1OCCCC(=O)NNC(=O)c1ccc(F)cc1
 : ·	·	-0.5	-0.6	1.1%	·	·
> O=C(/C=C1\NC2(CCCC2)Cc2ccccc21)C(=O)N/N=C/c1ccccc1O
 : 95.3*	0.3	1.1	15.6	-6.7%	0.1	1.1
> Cc1cc(C)n2nc(C(=O)N3CCN(Cc4ccc5c(c4)OCO5)CC3)nc2n1
 : -6.3	-1.3	-4.2	-6.2	·	-33.7	1.7
> CC(NC(=O)NC(=O)c1cccc([N+](=O)[O-])c1)C1CC1 (centres undefined)
 : -46.2	1.7	-2.0	-2.6	·	-10.2	-2.2
> CC(CN1CCCC1)OC(=O)C(c1ccccc1)c1ccccc1 (centres undefined)
 : -2.6	1.5	1.1	12.2	·	-24.5	12.6
> O=c1cc(CSc2nnc(Nc3ccccc3)s2)nc2sccn12
 : ·	·	1.0	-2.7	4.8%	-11.3	5.5
> COc1ccc(NS(=O)(=O)c2ccc(N3CCOCC3)c(NC(=O)c3ccc(OC)cc3)c2)cc1
 : 12.6	3.2	-1.8	8.6	?	-1.1	8.2
> CCOc1ccc(NS(=O)(=O)c2ccc(NC(=O)c3cccnc3)c(OC)c2)cc1
 : 13.4	-0.9	5.5	4.0	20.0%	-0.4	2.8
> COc1ccc(Nc2nc(NCC3CCCO3)c3ccccc3n2)c(OC)c1 (centres undefined)
 : 36.3	0.8	-2.7	0.4	5.3%	98.2*	-1.8
> COc1cccc(NC(=O)c2ccccc2-c2nc(-c3cccc(C)c3)no2)c1
 : ·	·	-0.5	1.2	1.1%	-5.0	-2.6
> Cc1ccc(C(=O)COC(=O)c2ccccc2N2C(=O)C3C4CCC(C4)C3C2=O)cc1C (centres undefined)
 : -5.2	-2.9	-0.1	0.7	4.1%	-4.5	-0.3
> CCC(C)N1CCCCC1C(=O)Nc1c(C)cc(C)cc1C (centres undefined)
 : 6.8	-2.5	-4.6	-0.9	?	-1.6	-0.3
> CCOC(=O)c1ccc(NC(=O)CSc2nnc(COc3ccccc3OC)n2CC)cc1
 : -4.7	-5.6	-1.6	-5.5	-6.5%	-6.5	-0.1
> O=C(NCc1cccc(Cl)c1)NCc1cccc(Cl)c1
 : 20.0	2.5	1.7	0.1	1.4%	-12.5	-4.0
> Cn1nnnc1SCC(=O)Nc1cccc([N+](=O)[O-])c1
 : 4.4	-0.7	-0.5	5.1	13.9%	0.8	-3.5
